Assay outcomes: PubChem, National Center for Advancing Translational Sciences (NCATS)
ClpP mod – qHTS Assay for Activators of ClpP | ATP-dependent Clp protease proteolytic subunit (Bacillus subtilis (strain 168)), P80244 | purified B. subtilis ClpP, FRET peptide cleavage, 20 min | 1.9% of 340,000 active | AID 651965, 2013 | Potency, µM (top dose mostly 57.5 µM), for inactives: at the highest dose activity change, negative = active; active = well fitted falling curve with a large enough effect; inconclusive = small, poorly fitted or top-dose-only effect; inactive = no such curve, though single readings can be large or run the other way; also: potency is read from the fitted curve at half-maximal effect; the source files actives as falling curves though it sought activators and does not explain the sign; nearly all actives have a fitted effect of over 65% in size; many hits overshoot -100%
Target sequence (P80244 whole entry, looked up): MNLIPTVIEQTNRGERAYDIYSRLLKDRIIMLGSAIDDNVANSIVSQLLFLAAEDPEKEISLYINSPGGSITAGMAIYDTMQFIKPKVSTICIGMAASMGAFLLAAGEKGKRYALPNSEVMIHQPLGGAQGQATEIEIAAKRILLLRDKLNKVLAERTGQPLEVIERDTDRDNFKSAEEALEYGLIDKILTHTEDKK
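FRET quenching reversal measured ClpP activation: 10 microg/mL B. subtilis ClpP at pH 8 with the FRET-FV decapeptide, read at 430 nm after 320 nm excitation. The 20-min minus 0-min signal was scaled between DMSO/no-enzyme wells and ADEP (5.8 microM final).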
TRPV1 potentiator – HTS Assay for Compounds that Act as Potentiators of the Vanilloid Receptor 1; TRPV1-expressing cells, Fluo-8 calcium influx, capsaicin EC20 potentiation; host cell line not named in the record; control for the full effect not named in the record; Transient receptor potential cation channel subfamily V member 1 (Homo sapiens), Q8NER1; 0.02% of 320,000 active; AID 540277, 2011; potentiation, % at 8.33 µM; active means potentiation above 80%; inconclusive means 30% to 80%; inactive means below 30%; also: 0% is about no effect
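Fluo-8 calcium influx in TRPV1-expressing cells, kinetic read (ex 480/em 520 nm). Compound added and read 3 min for agonist activity, followed by capsaicin at EC20 final and 2 min further read for enhancement.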
gsp agonist – qHTS for Agonist of gsp, the Etiologic Mutation Responsible for Fibrous Dysplasia/McCune-Albright Syndrome: qHTS; gsp mutant cells, cAMP HTRF, 30 min; control for the full effect not named in the record; Potency, µM (titrated, usually from 76.9 µM), for inactives: at the top dose activation (cAMP increase), most hits filed as activators; 0.13% of 340,000 active; active = well fitted activation curve with a large enough effect; inconclusive = small, poorly fitted or top-dose-only effect, or another doubt; inactive = no such curve, though single readings can be large or run the other way; cell line not stated here;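 also: phosphodiesterase inhibitor Ro 20-1724 added with compounds to block cAMP breakdown; potency is read from the fitted curve at half-maximal effect; nearly all actives have a fitted effect of over 60% in size; about a fifth of the inactives were tested at one dose only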
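Cells in DMEM/10% FBS with G418 were pretreated with compounds in DMSO plus […] (300 uM stock) for 30 min at 37C. cAMP was measured by HTRF (cAMP-d2 plus anti-cAMP antibody-K) after 30 min at room temperature.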
D2 PAM – Beta-Arrestin HTS for Positive Allosteric Modulators of the Human D2 Dopamine Receptor: Potentiators; DiscoveRx D2 beta-arrestin cells, luminescence, 90 min; 100% = 57 uM dopamine signal; potentiation, % (no concentration beside the values); 0.23% of 360,000 active; AID 624464, 2012; D(2) dopamine receptor (Homo sapiens), P14416; active = potentiation of 50% or more; inconclusive = 30% to 50%; inactive = 30% or less;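 also: compound concentration not given in the record; tested on top of an EC20 dose of dopamine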
Target sequence (P14416 whole entry, looked up): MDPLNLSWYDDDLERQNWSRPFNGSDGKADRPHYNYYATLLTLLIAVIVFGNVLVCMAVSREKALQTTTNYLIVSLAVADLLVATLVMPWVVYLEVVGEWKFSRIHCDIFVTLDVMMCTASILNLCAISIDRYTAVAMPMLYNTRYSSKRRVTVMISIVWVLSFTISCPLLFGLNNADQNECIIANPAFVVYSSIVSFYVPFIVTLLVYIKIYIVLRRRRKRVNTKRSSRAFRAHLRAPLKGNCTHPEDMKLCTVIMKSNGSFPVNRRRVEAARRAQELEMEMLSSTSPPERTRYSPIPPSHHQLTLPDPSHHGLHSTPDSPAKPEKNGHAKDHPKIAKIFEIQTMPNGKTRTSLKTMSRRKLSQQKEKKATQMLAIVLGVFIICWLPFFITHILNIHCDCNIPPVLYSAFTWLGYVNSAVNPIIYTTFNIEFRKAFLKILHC
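PathHunter D2 cells, attached overnight at 37 deg C, received compound in DMSO plus dopamine at EC20 (50 nM final) for 90 min at 37 deg C. Beta-arrestin recruitment was read as luminescence after 1 h with detection reagent at ambient temperature.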
Menin MLL FP FL – qHTS Assay for Inhibitors Targeting the Menin-MLL Interaction in MLL Related Leukemias: Competition With Fluorescein Labeled MLL-derived Peptide | Fluorescence polarization, fluorescein-MLL peptide displacement from menin | FP activity change, % at 61.4 µM | 290,000 tested, under 10 active | AID 1766, 2009; inconclusive = falling polarisation curve, or a change in total fluorescence; inactive = total fluorescence flat and polarisation flat or rising; no compound was filed as active; the % refers to the polarisation; negative = inhibition;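 also: % of control where 0% means no effect; inhibitors lower the polarisation; unlabelled MLL peptide was the positive control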
Sfp inh – qHTS Assay for Inhibitors of Bacillus subtilis Sfp phosphopantetheinyl transferase (PPTase); Biochemical Sfp PPTase activity, qHTS; Potency, µM, for inactives: max response, negative = inhibition, hits mostly inhibitors; 3.5% of 310,000 active; AID 1490, 2009; active = well fitted inhibition curve with a large enough effect; inconclusive = small, poorly fitted or top-dose-only effect, or another doubt; inactive = no such curve, though single readings can be large or run the other way;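 also: the enzyme is Sfp with the accession as filed and its product quenches rhodamine fluorescence; potency is read from the fitted curve at half-maximal effect; 0% = enzyme reaction without inhibitor and -100% = no enzyme wells; top concentration of the series not given in the record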
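After 15 min at room temperature with compound, 15 nM Sfp received 5 uM rhodamine-CoA plus 12.5 uM BHQ-2-ybbR (50 mM Hepes pH 7.6, 10 mM MgCl2). Rate came from the fluorescence difference over 30 min, ex 525/em 598 nm.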
gsp antag – qHTS for Antagonists of gsp, the Etiologic Mutation Responsible for Fibrous Dysplasia/McCune-Albright Syndrome: qHTS. 0.4% of 340,000 active. AID 624288, 2012. Potency, µM (doses to about 76.9 µM), inactives show at the top dose activity change, negative = inhibition, usual class: inhibitors. gsp-mutant cells, cAMP HTRF, 30 min; control for the full effect not named in the record; active = falling curve of any shape with a large fitted effect; inconclusive = falling curve, mostly with a smaller effect; inactive = flat or rising curve; cell line not stated here;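 also: intracellular cAMP measured with PDE inhibitor Ro 20-1724 present during compound exposure; potency is read from the fitted curve at half-maximal effect; % is scaled to controls: 0 for no effect and ±100 for the full control effect; nearly all actives have a fitted effect of over 65% in size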
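Measurement of cellular cAMP by homogeneous time-resolved fluorescence following a 30 min compound exposure at 37C. The PDE inhibitor […] was present throughout; the assay buffer was DPBS with 0.05% BSA and 0.005% Tween 20.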
Starred values were filed as active, the others as inactive; ? = inconclusive; . = not tested or not shown; [ ] = remark or other dose.

Each structure is followed by: ClpP mod | TRPV1 potentiator | gsp agonist | D2 PAM | Menin MLL FP FL | Sfp inh | gsp antag
CCCCN(C(=O)CSc1nnc(-c2ccccc2OC)n1C)c1c(N)n(Cc2ccccc2)c(=O)[nH]c1=O
 : 2.0% | 1 | -1% | -1 | 3.2 | 9% | ?
COc1ccc(-c2sc(NC(=O)c3ccc(C)cc3)nc2-c2ccc([N+](=O)[O-])cc2)cc1
 : -0.4% | -3 | 1% | -13 | 12 | 23% | 10%
CN1C(=O)c2ccccc2NC(=O)[C@]12O[C@@H]2c1cccc(O)c1
 : -10% | 0 | ? | -5 | ? | -7% | -9%
C[C@@H]1Cn2cnc(C(=O)N[C@@H](C)C(=O)OC(C)(C)C)c2C(=O)N1
 : 0.5% | . | -13% | -1 | . | . | .
COc1cc(/C=N/n2cnnc2)ccc1OCCSc1ccc(C)cc1
 : -7.9% | 22 | 17% | -4 | 2.2 | 7% | -3%
Cc1ccccc1C(=O)N1CCC(C(=O)N(C)CCOc2ccccc2)CC1
 : -2.8% | 4 | ? | -4 | -0.2 | 27% | 1%
CCOc1ccc(C(CC(=O)O)NC(=O)COc2ccccc2)cc1OC (stereo not given)
 : . | 14 | -7%[15.4 µM] | -19 | -3.4 | 14% | .
CC(C)(C)C(=O)Nc1scc(-c2ccc(-c3ccccc3)cc2)c1C(=O)O
 : -4.9% | 16 | -79%[inhibitor] | -4 | -4.6 | 9% | 35µM*
CCOc1ccc(NC(=O)CN2CCN(CC(=O)c3ccc(OC)c(OC)c3)CC2)cc1
 : 0.5% | -4 | -24% | -7 | -0.2 | 8% | -1%
CCCCCCNC(=O)CCc1nc2cccnc2n1Cc1ccc(OC)cc1
 : -2.6% | -2 | 24% | -2 | -1.2 | 11% | -13%
Cc1occc1-c1nnc(SCC(N)=O)n1Cc1ccccc1
 : -2.0% | -3 | 0% | -9 | 0.2 | 7% | 9%
Cc1ccc2nc(C)c(C(=O)N/N=C/c3ccccc3[N+](=O)[O-])cc2c1
 : 1.0% | -20 | ? | 9 | 5.7 | -8% | -31%
O=C(/C=C/c1ccccc1Cl)NCCc1ccccc1
 : -1.3% | -2 | ? | -11 | -2.6 | -10% | -12%
CCCC(=O)Nc1cc(=O)[nH]c2ncnn12
 : -3.4% | 2 | -16% | 1 | 0.6 | 16% | 15%
CCOC(=O)C1CCN(C(=O)c2ccccc2NS(=O)(=O)c2ccc(F)c(F)c2)CC1
 : -1.7% | ? | 2% | 1 | 3.3 | 4% | -10%
CC(=O)OC1CC2(C)/C(=N\O)CCC2C2CCc3cc(O)ccc3C12 (stereo not given)
 : 0.4% | -7 | 22% | 5 | 4.9 | 3% | 3%
Cc1noc(C)c1CSCC(=O)OCC(=O)Nc1ccc(OC(F)(F)F)cc1
 : 1.0% | . | -76%[inhibitor] | -7 | . | . | .
CCN(CC)CCCNC(=O)c1cc(Sc2nnc(C)s2)nc2ccccc12
 : -4.9% | ? | 5% | -9 | 8.6 | -7% | -3%
C=CCCC(=O)N1C[C@H]2CON(C)[C@H]2C[C@H]1c1cccc(Br)c1
 : -0.6% | . | . | 2 | . | . | 9%
COC(=O)c1cccc(NC(=S)N2CCCCC2)c1
 : . | -4 | 6%[15.4 µM] | -3 | -2.7 | 14% | 4%
Cc1ccc(NC(=S)NCc2cccs2)cc1
 : -0.7% | -15 | 20% | -4 | 0.3 | -3% | 6%
CCO[C@@H]1c2c(ccc3ccc(=O)oc23)OC(C)(C)[C@@H]1O
 : 4.3% | -1 | . | -3 | . | . | -3%
COc1ccc(NC(=O)CSCC(=O)N=c2sccn2C)cc1
 : 1.2% | 8 | 42% | 6 | . | 7% | 3%
CCN(CC)CCCN(C(=O)c1cccs1)c1nc(-c2ccc(OC)cc2)cs1
 : -0.8% | 0 | -4% | -22 | 3.2 | -3% | -3%
COc1ccc2oc(=O)c(C(=O)OCc3ccccc3)cc2c1
 : 3.4% | -7 | ? | -5 | 20 | 50µM* | 2%
COCC(=O)N1CCC(Oc2ccc(C(=O)N[C@H](C(=O)OC)C(C)C)cc2)CC1
 : 0.5% | -3 | -1% | -2 | -0.9 | -25% | -1%
Nc1nnc(SCCN2C(=O)c3ccccc3C2=O)s1
 : 0.2% | 1 | ? | -12 | 1.6 | 2% | 3%
O=C(c1ccccc1)N1C(=O)C(c2ccccc2)Oc2ccccc21 (stereo not given)
 : -2.4% | 14 | -1%[15.4 µM] | -1 | 6.1 | 3% | -16%
Cc1cc(N2CCN(C)CC2)nc2ccc(NC(=O)CCC(=O)NCCc3ccc(Cl)cc3)cc12
 : . | 19 | 14% | -2 | 0.2 | 8% | 7%
CCn1c(SCC(=O)N/N=C/c2ccc(OC)c(OC)c2)nc2ccccc21
 : 1.2% | -1 | -5% | -11 | -5.2 | 13% | -1%
O=C(NCCCCCCNC(=O)c1cccs1)c1cccs1
 : . | 1 | 6%[15.4 µM] | -6 | -2.0 | 18% | 0%
Cc1cc(C(=O)N/N=C/c2ccncc2)c2ccccc2n1
 : . | 0 | -19% | -3 | 0.8 | ? | 7%
O=C(CC(c1ccco1)S(=O)(=O)c1ccccc1)c1ccccc1 (stereo not given)
 : -2.6% | -16 | -2%[15.4 µM] | -4 | -1.3 | ? | -9%
CCOC(=O)Cn1nc(C)cc1NC(=O)c1cc(OC)c(OC)c(OC)c1
 : -3.0% | 1 | ? | -1 | -4.8 | -1% | -4%
OC1O[C@H](c2ccc3c(c2)OCO3)[C@H]2CO[C@H](c3ccc4c(c3)OCO4)[C@@H]12 (stereo not given in full)
 : -1.3% | -3 | ? | 4 | 2.5 | 2% | 4%
COc1ccc(-c2nnc(NC(=O)C3CCCN3S(=O)(=O)c3cccs3)o2)cc1 (stereo not given)
 : -1.7% | 14 | ? | 19 | . | . | -10%
C=C(C)c1cccc(C(C)(C)NC(=O)NCc2cccnc2)c1
 : 0.1% | 5 | 4%[15.4 µM] | -16 | 0.0 | 12% | 3%
Cc1ccc(C2c3sc(=O)[nH]c3SC3C4CC(C5C(=O)N(C(C)C(=O)O)C(=O)C45)C23)cc1 (stereo not given)
 : -2.4% | 3 | -4% | -6 | 5.9 | -18% | -1%
CC(C)CC(NC(=O)CCC(=O)OCC(=O)[C@@]1(O)CCC2[C@@H]3CCC4=CC(=O)C=C[C@]4(C)C3[C@@H](O)C[C@@]21C)C(=O)O (stereo not given in full)
 : 1.6% | ? | -13% | 1 | -2.7 | 4% | 6%
CCOc1ccc(C(=O)NCCN2CCCC2)cc1
 : 0.7% | -9 | -3% | -9 | 2.3 | -16% | -5%
COc1ccc(C(=O)Nc2cccc3c2CCCC3)cc1
 : -8.3% | ? | 0% | -1 | -2.1 | 10% | -1%
Cc1ccc(C(=O)NC(=S)NNC(=O)c2ccccc2O)cc1
 : -3.7% | 28 | -2%[15.4 µM] | -9 | ? | 26% | -13%
Nc1cc(=O)[nH]c(SCC(=O)NNC(=O)Cc2ccccc2)n1
 : . | -1 | -10%[15.4 µM] | -12 | -9.5 | 9% | 14%
Cc1c(C(=O)OCCOC(C)C)[nH]c2c1C(=O)CC(c1ccco1)C2 (stereo not given)
 : -0.4% | -18 | 16% | 4 | -1.7 | ? | 10%
COc1ccc(C(=O)N/C(=C\c2ccc(SC)cc2)C(=O)NCCCn2ccnc2)cc1OC
 : -3.2% | . | -26% | -11 | . | . | 5%
COc1ccc(N2CCN(C(=O)c3ccc4c(=O)n(Cc5ccc6c(c5)OCO6)c(=O)[nH]c4c3)CC2)cc1
 : -7.5% | 9 | -69%[inhibitor] | -6 | . | 12% | 0%
COc1ccc(CN2CC(=O)N(c3ccccc3OC)C2=S)cc1OC
 : . | 6 | 8% | 2 | 2.1 | 4% | -4%
CC1CN(S(=O)(=O)c2ccc(C(=O)N(CCCN(C)C)c3nc4cc5c(cc4s3)OCCO5)cc2)CC(C)O1 (stereo not given)
 : -3.2% | 12 | 6%[15.4 µM] | -11 | . | . | -2%
CCCC(=O)NCc1cc(-c2nn(C)c(=O)c3ccccc23)ccc1C
 : 0.1% | 19 | -6% | 19 | 4.2 | -6% | -18%
Cn1c(=O)c2ccccc2n(CC(=O)N2CCCc3ccccc32)c1=O
 : . | -2 | -2%[15.4 µM] | -3 | -6.2 | 0% | -5%
Cn1c(=O)c2c(nc(SCC(=O)NCC3CCCO3)n2C)n(C)c1=O (stereo not given)
 : -2.0% | 16 | ? | -3 | 0.1 | 7% | 11%
COCCn1c(SCC(=O)Nc2nnc(C)s2)nnc1-c1ccoc1C
 : -0.8% | 6 | 1%[15.4 µM] | -5 | 2.8 | 11% | 7%
COC(=O)[C@@H](NC(=O)/C=C/c1ccc(OC)cc1)C(C)C
 : 1.7% | 4 | 14% | -8 | 1.1 | 14% | 4%
CC1CCCCC1NC(=O)COC(=O)c1cccn1C (stereo not given)
 : -1.9% | -1 | ? | -6 | . | . | 1%
COc1cc(/C=N/NC(=O)c2cc(-c3ccco3)nc3ccccc23)cc(OC)c1O
 : -16% | 17 | -32%[inhibitor] | 5 | 1.9 | -3% | -9%
COc1ccc(Cl)cc1C(=O)Nc1ccc(S(N)(=O)=O)cc1
 : . | 14 | 1%[15.4 µM] | -5 | 0.2 | 15% | 0%
